Vaccinia inh = Vaccinia orthopox stage-specific inhibition; Vaccinia-infected cells, mCherry/Venus stage reporter fluorescence; stronger effect = lower value; some inactives read as strong as hits; activity change (mCherry), % (no concentration beside the values); 0.01% of 89,000 active; AID 1053133;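 active = mCherry past -33% and 40 or more points under the early reporter, replicates agreeing; inconclusive = past -33% without that gap or agreement; tested in A549 cells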;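 also: scaled between vehicle wells and reference inhibitor wells; 23 nL library stock went into each well; one replicate is shown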
Vaccinia inh Venus = also measured in Vaccinia inh; calls as there; activity change (Venus), %; measured here: Venus reporter, other viral stage;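 negative = less Venus signal; first of two replicates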
* = called active by the depositor; u = inconclusive; x = no result given; & = joins results of further samples. Some of the compounds tested; count on the stated rates, not on these rows.

SMILES	Vaccinia inh Venus	Vaccinia inh
CC(=O)N(C)C[C@H]1Oc2ncc(C#C[C@@H](C)O)cc2C(=O)N([C@H](C)CO)C[C@@H]1C	3	21
CN1c2ccc(Br)cc2[C@H]2[C@H](CCN2C(=O)CN2CCOCC2)[C@H]1CO	7	2
C[C@@H]1CN([C@H](C)CO)C(=O)c2cc(NC(=O)Nc3ccc4c(c3)OCO4)ccc2O[C@@H]1CN(C)S(=O)(=O)c1cccs1	-1	-11
CO[C@H]1CN(C)C(=O)c2ccc(NS(=O)(=O)c3ccccc3F)cc2OC[C@@H](C)NC[C@H]1C	15	23
COc1ccccc1CNC(=O)C[C@H]1CC[C@@H]2[C@H](COC[C@@H](O)CN2C(=O)Nc2ccc(C(F)(F)F)cc2)O1	x	u
N#C[C@@H]1[C@H](c2ccc(C3=CCCC3)cc2)[C@H](CO)N1C(=O)Nc1ccccc1F	-7	-1
CC(C)COC(=O)N(C)C[C@@H]1OCc2ccccc2-c2ccccc2C(=O)N([C@@H](C)CO)C[C@H]1C	4	21
CO[C@H]1CN(C)C(=O)c2cc(NC(C)=O)ccc2OC[C@H](C)NC[C@@H]1C	8	10
COc1ccc(C#Cc2cnc3c(c2)C(=O)N([C@H](C)CO)C[C@H](C)[C@H](CN(C)Cc2cccc(C)c2)O3)cc1OC	x	u
CCS(=O)(=O)N1CC2(C1)[C@H](c1ccccc1)[C@H](CO)N2Cc1ccccn1	10	13
Cc1ccccc1S(=O)(=O)N1CC[C@H]2[C@H](CO)Nc3ccc(-c4ccccc4)cc3[C@H]21	-17	-17
COc1ccc2c3c([nH]c2c1)[C@@H](CO)N(C(=O)Nc1ccc(F)cc1)CC31CN(S(=O)(=O)c2ccc(C)cc2)C1	-3	5
COc1ccccc1NC(=O)N[C@@H]1CC[C@@H](CCNC(=O)Cc2ccccn2)O[C@H]1CO	5	3
Cc1noc(C)c1S(=O)(=O)N(C)C[C@@H]1OCCCC[C@@H](C)Oc2ccc(NC(=O)NC3CCCCC3)cc2C(=O)N([C@@H](C)CO)C[C@@H]1C	10	16
C[C@@H]1CN([C@@H](C)CO)C(=O)c2cc(-c3ccccc3F)cnc2O[C@H]1CN(C)Cc1ccccc1F	x	u
C[C@@H]1CN([C@H](C)CO)C(=O)c2cc(NC(=O)Nc3ccccc3)ccc2O[C@@H](C)CCCCO[C@@H]1CN(C)C(=O)C1CCCCC1	-5	19
C[C@@H]1CN([C@@H](C)CO)C(=O)Cc2cc(NC(=O)CCC(F)(F)F)ccc2O[C@H]1CN(C)S(=O)(=O)c1cccs1	2	0
C[C@H]1CN([C@@H](C)CO)C(=O)c2cc(C#CC3(O)CCCC3)cnc2O[C@@H]1CN(C)C(=O)C1CCOCC1	-1	15
Cc1noc(C)c1S(=O)(=O)Nc1ccc2c(c1)CC(=O)N([C@@H](C)CO)C[C@@H](C)[C@H](CN(C)C(=O)NC(C)C)O2	3	2
C[C@@H]1CN([C@@H](C)CO)C(=O)c2cc(C#CC(C)(C)O)cnc2O[C@@H]1CN(C)C(=O)C1CC1	12	17
C[C@H]1CN([C@@H](C)CO)C(=O)Cc2cc(NC(=O)C3CCCCC3)ccc2O[C@@H]1CN(C)Cc1ccc(C(=O)Nc2ccccc2N)cc1	1	0
CC(C)C#Cc1ccc2c(c1)O[C@@H](CN(C)S(C)(=O)=O)[C@H](C)CN([C@H](C)CO)S2(=O)=O	-14	0
C/C=C/c1ccccc1[C@H]1[C@@H](C#N)N(S(=O)(=O)c2cccc(F)c2)[C@H]1CO	-6	-14
C[C@@H]1CN([C@H](C)CO)C(=O)Cc2cc(NS(=O)(=O)c3cn(C)cn3)ccc2O[C@@H]1CN(C)S(=O)(=O)c1cccs1	-2	1
COc1ccc(-c2cnc3c(c2)C(=O)N([C@H](C)CO)C[C@@H](C)[C@H](CN(C)Cc2ccc(C(=O)O)cc2)O3)cc1	18	1
C[C@@H]1CN([C@H](C)CO)C(=O)c2cc(NC(=O)NC3CCCCC3)ccc2O[C@@H](C)CCCCO[C@H]1CN(C)S(=O)(=O)c1ccc(Cl)cc1	10	-5
CO[C@@H]1CN(C)C(=O)c2ccc(NC(=O)C3CCCC3)cc2OC[C@H](C)N(C(=O)CC2CC2)C[C@H]1C	9	8
O=C(NCC[C@H]1CC[C@@H](NS(=O)(=O)Cc2ccccc2)[C@H](CO)O1)C1CCCCC1	7	3
CCC(=O)Nc1ccc2c(c1)OC[C@H](C)N(C(=O)c1ccc(F)cc1)C[C@H](C)[C@@H](OC)CN(C)C2=O	7	14
O=S(=O)(c1ccccc1F)N1[C@@H]2CNC[C@H]1C2c1ccc(/C=C/c2ccccc2)cc1 (some centres undefined)	8&5	-1&6
CC(=O)N1[C@@H]2c3ccc(C4=CCCC4)c(=O)n3C[C@H]1[C@H](CO)[C@H]2C(=O)NC1CCC1	-7	5
C[C@@H]1CCCCO[C@@H](CN(C)Cc2ccc(Cl)c(Cl)c2)[C@H](C)CN([C@H](C)CO)C(=O)c2cc(NC(=O)c3ccccc3)ccc2O1	x	u
C[C@H](CO)N1C[C@H](C)[C@H](CN(C)C(=O)Nc2ccc(F)cc2)Oc2c(NC(=O)C3CCCCC3)cccc2C1=O	10	10
COc1ccc(CN(C)C[C@@H]2OCCCC[C@H](C)Oc3ccc(NS(=O)(=O)c4ccccc4)cc3C(=O)N([C@H](C)CO)C[C@H]2C)cc1	x	u
CC(C)NC(=O)N(C)C[C@H]1Oc2c(NS(=O)(=O)c3ccc(F)cc3)cccc2C(=O)N([C@H](C)CO)C[C@@H]1C	-3	7
CNC[C@@H]1Oc2ncc(-c3cccc(C(F)(F)F)c3)cc2C(=O)N([C@H](C)CO)C[C@@H]1C	-14	-17
C[C@@H]1CN([C@H](C)CO)C(=O)c2cccc(NS(=O)(=O)c3ccc(Cl)cc3)c2O[C@@H]1CN(C)CC1CCCCC1	8	16
CCCNC(=O)N1C[C@@H](O)COC[C@H]2O[C@H](CC(=O)NCc3ccc(Cl)c(Cl)c3)CC[C@@H]21	2	-4
C[C@H](CO)N1C[C@H](C)[C@@H](CN(C)C(=O)c2cccc(F)c2)Oc2ncc(C3=CCCCC3)cc2C1=O	-6	-20
C[C@@H]1CCCCO[C@H](CN(C)Cc2ccccc2)[C@H](C)CN([C@H](C)CO)C(=O)c2cc(NS(=O)(=O)c3ccccc3)ccc2O1	x	u
C[C@H]1CN([C@@H](C)CO)C(=O)c2cc(/C=C/c3ccccc3)cnc2O[C@@H]1CN(C)S(=O)(=O)c1cn(C)cn1	-6	8
COc1ccccc1-c1ccc([C@@H]2[C@@H](CO)N(C(=O)C3CC3)C23CN(C(C)=O)C3)cc1	-4	-8
CCc1cnc(N2[C@@H](C#N)[C@H](c3ccc(C4=CCCC4)cc3)[C@@H]2CO)s1	7	3
C[C@@H]1CN([C@H](C)CO)C(=O)c2cccc(NC(=O)Nc3ccc(C(F)(F)F)cc3)c2O[C@@H]1CN(C)Cc1ccccc1	-15	-25
C[C@H]1CN([C@@H](C)CO)C(=O)Cc2cc(NC(=O)Cn3cnnn3)ccc2O[C@H]1CN(C)S(=O)(=O)c1ccccc1	14	6
Cc1noc(C)c1NC(=O)Nc1cccc2c1O[C@H](CN(C)Cc1ccncc1)[C@@H](C)CN([C@H](C)CO)C2=O	1	15
COc1ccc(S(=O)(=O)N(C)C[C@@H]2OCc3ccccc3-c3c(n(C)c4ccccc34)C(=O)N([C@@H](C)CO)C[C@@H]2C)cc1	x	u
C[C@@H]1CN([C@@H](C)CO)C(=O)c2cccc(NC(=O)Nc3ccc(C(F)(F)F)cc3)c2O[C@@H]1CN(C)S(C)(=O)=O	-13	-13
C[C@H](CO)N1C[C@H](C)[C@@H](CN(C)C(=O)Nc2ccc3c(c2)OCO3)OCCCC[C@H](C)Oc2ccc(NS(C)(=O)=O)cc2C1=O	10	33
CC(C)NC(=O)N(C)C[C@H]1OCCCC[C@@H](C)Oc2ccc(NS(=O)(=O)c3ccc(Cl)cc3)cc2C(=O)N([C@@H](C)CO)C[C@@H]1C	-9	-21

Next records follow:
SMILES	Vaccinia inh Venus	Vaccinia inh
CCCN1C[C@@H](C)[C@@H](OC)CN(C)C(=O)c2cc(NC(=O)c3ccno3)ccc2OC[C@H]1C	-6	-3
C[C@H](CO)N1C[C@H](C)[C@H](CN(C)S(C)(=O)=O)Oc2ccc(NS(=O)(=O)c3cccs3)cc2CC1=O	4	2
O=C(NC[C@@H]1N[C@@H](CO)[C@H]1c1ccc(-c2ccccc2F)cc1)c1ccccc1	-7	-32
C[C@H](CO)N1C[C@H](C)[C@H](CN(C)Cc2ccc(C(F)(F)F)cc2)Oc2ccc(NC(=O)CCC(F)(F)F)cc2CC1=O	-20	-16
CO[C@H]1CN(C)C(=O)c2ccc(NC(C)=O)cc2OC[C@H](C)N(Cc2ccccc2F)C[C@H]1C	-8	-23
COc1ccccc1-c1ccc2c(c1)O[C@H](CN(C)S(=O)(=O)c1ccc(F)cc1)[C@H](C)CN([C@@H](C)CO)S2(=O)=O	x	u
Cc1noc(C)c1NC(=O)Nc1ccc2c(c1)C(=O)N([C@@H](C)CO)C[C@@H](C)[C@H](CN(C)C(=O)NC(C)C)OCCCC[C@H](C)O2	-1	-3
COCC(=O)N(C[C@H]1N[C@H](CO)[C@@H]1c1ccc(-c2cccnc2)cc1)C(C)C	9	4
COCC#Cc1ccc2c(c1)O[C@@H](CN(C)C(=O)C1CC1)[C@H](C)CN([C@@H](C)CO)S2(=O)=O	2	18
O=C1NC(Cc2cccc(Cl)c2)COCc2cnnn2CCC1c1ccccc1 (centres undefined)	4	0
Cc1noc(C)c1NC(=O)Nc1cccc2c1O[C@@H](CN(C)S(=O)(=O)c1ccc(F)cc1)[C@@H](C)CN([C@H](C)CO)C2=O	6	2
CN(C)CC#Cc1ccc([C@@H]2[C@H](CO)N3CCCCN(C(=O)Nc4cc(F)ccc4F)C[C@@H]23)cc1	4	-6
C[C@@H]1CN([C@@H](C)CO)C(=O)c2cccc(NC(=O)Nc3ccc(C(F)(F)F)cc3)c2O[C@H]1CN(C)C	-3	-2
N#Cc1cccc(-c2ccc([C@H]3[C@@H](CO)N4CCCCN(C(=O)Cc5ccncc5)C[C@H]34)cc2)c1	11	19
COc1ccc(S(=O)(=O)N(C)C[C@H]2Oc3ccc(NS(=O)(=O)c4ccc(F)cc4)cc3C(=O)N([C@H](C)CO)C[C@@H]2C)cc1	7	7
CCS(=O)(=O)Nc1ccc2c(c1)C(=O)N(C)[C@@H]1CC[C@@H](CC(=O)NCCCN3CCOCC3)O[C@@H]1CO2	4	-3
COc1ccccc1NC(=O)N1CC(=O)N2[C@@H](CO)[C@@H](c3ccc(C#CC4CC4)cc3)[C@@H]2C1	1	-3
O=C(Nc1ccc2c(c1)[C@H]1C[C@@H](CC(=O)N3CCc4ccccc4C3)O[C@@H](CO)[C@H]1O2)NC1CCCC1	7	10
C[C@H](CO)N1C[C@H](C)[C@H](CN(C)C)Oc2ccc(NC(=O)NC3CCCCC3)cc2CC1=O	15	28
COCC(=O)Nc1ccc2c(c1)C(=O)N(C)[C@@H]1CC[C@@H](CC(=O)Nc3ccccc3)O[C@H]1CO2	7	3
C[C@@H]1CCCCO[C@@H](CN(C)CC2CC2)[C@@H](C)CN([C@H](C)CO)C(=O)c2cc(NC(=O)Nc3ccc(F)cc3)ccc2O1	-1	-7
COc1ccc(C#Cc2ccc([C@@H]3[C@H](CO)N4CCCCN(S(=O)(=O)c5cn(C)cn5)C[C@@H]34)cc2)cc1	x	u
C[C@H]1CN([C@@H](C)CO)S(=O)(=O)c2ccc(-c3ccc(C#N)cc3)cc2O[C@H]1CN(C)CC1CC1	-10	-8
CC(C)NC(=O)Nc1cccc2c1O[C@@H](CN(C)C(=O)Nc1ccc(F)cc1)[C@H](C)CN([C@H](C)CO)C2=O	-6	0
O=C(NC1CCC1)[C@H]1[C@H](CO)[C@H]2Cn3c(ccc(-c4ccccc4F)c3=O)[C@H]2N1Cc1ccccn1	1	-4

Given as labelled records: part of the list above
COCC(=O)Nc1ccc2c(c1)C(=O)N(C)[C@@H]1CC[C@@H](CC(=O)Nc3ccccc3)O[C@H]1CO2
  Vaccinia inh Venus = 7
  Vaccinia inh = 3
C[C@@H]1CCCCO[C@@H](CN(C)CC2CC2)[C@@H](C)CN([C@H](C)CO)C(=O)c2cc(NC(=O)Nc3ccc(F)cc3)ccc2O1
  Vaccinia inh Venus = -1
  Vaccinia inh = -7
COc1ccc(C#Cc2ccc([C@@H]3[C@H](CO)N4CCCCN(S(=O)(=O)c5cn(C)cn5)C[C@@H]34)cc2)cc1
  Vaccinia inh Venus = x
  Vaccinia inh = u
C[C@H]1CN([C@@H](C)CO)S(=O)(=O)c2ccc(-c3ccc(C#N)cc3)cc2O[C@H]1CN(C)CC1CC1
  Vaccinia inh Venus = -10
  Vaccinia inh = -8

Additional compounds
SMILES	Vaccinia inh Venus	Vaccinia inh
O=C(CN1CCOCC1)NCC[C@@H]1CC[C@@H](NC(=O)c2ccc3c(c2)OCO3)[C@H](CO)O1	0	-3
C[C@H]1CN([C@@H](C)CO)C(=O)Cc2cc(NC(=O)Nc3ccc(C(F)(F)F)cc3)ccc2O[C@H]1CN(C)Cc1ccc(C(=O)Nc2ccccc2N)cc1	-7	-21
C[C@H](CO)N1C[C@H](C)[C@H](CN(C)C)OCCCC[C@H](C)Oc2ccc(NC(=O)c3ccncc3)cc2C1=O	7	4
C[C@@H]1CN([C@@H](C)CO)C(=O)c2ccccc2-c2ccccc2CO[C@H]1CN(C)C(=O)Nc1ccc(F)cc1	-6	17

Source: PubChem BioAssay (Broad Institute)
